# Ecoli rRNA inh = inhibits bacterial ribosomal RNA function over humanized ribosomes. E. coli WT GFP vs humanized-ribosome RFP mutants, fluorescence, 24 h; hits give low values; DMSO median 0, no signal -100. GFP signal change (wild-type ribosome), % (test concentration not listed). 1.6% of 350,000 active. AID 720706;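 active means significant combined selectivity score with lowered wild-type GFP, culture density cut under 30%, mutant RFP and density less affected; inactive means any of these conditions unmet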; further: one replicate is shown; some compounds called inactive have numbers as strong as hits
# FGF22 binding = FGF22 (human) thermal shift binding; recombinant FGF22 thermal shift, SYPRO orange fluorescence; percent of sucrose octasulfate shift, DMSO zero; 1.5% of 340,000 active; Q9HCT0; calls only at 9.99 µM; AID 651658;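 active means melting point raised past a set limit in the mean and every replicate; inconclusive means no clear call; three in four hits are not shown here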
# Target sequence (Q9HCT0 whole entry, looked up): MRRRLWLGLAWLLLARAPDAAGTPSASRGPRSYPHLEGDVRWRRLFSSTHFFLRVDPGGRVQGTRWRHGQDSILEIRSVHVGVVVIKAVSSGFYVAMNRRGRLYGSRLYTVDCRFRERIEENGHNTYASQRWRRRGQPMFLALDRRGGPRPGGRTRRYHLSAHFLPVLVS
# RanGTP-Impb inh = inhibitors of RanGTP-importin-beta interaction, primary screen, biochemical, FRET, CFP-Ran, YFP-importin-beta, homogeneous. cell-free CFP-Ran/YFP-importin-beta FRET ratio. inhibition, % (test concentration not listed). 1.1% of 300,000 active;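 active means most replicates above 15%; inconclusive means exactly half above 15%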;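 further: 0% = DMSO wells and 100% = Ran loaded with GDP instead of GTP; wells of about 40 µL received 100 nL stock; the first replicate is given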
# ALR H2O2 inh = blocks human ALR sulfhydryl oxidase activity. P55789. purified ALR, DTT oxidation, H2O2 HRP-luminol luminescence. inhibition, % (concentration not given with the values). 3.8% of 290,000 active;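 active means mean and each replicate at 75% or more; inconclusive means only one of the two met; inactive means neither met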;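 further: stock transfer was 7.5 nL into about 7.5 µL; 0% = neutral wells and 100% = wells with inactivated enzyme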
# Target sequence (P55789 whole entry, looked up): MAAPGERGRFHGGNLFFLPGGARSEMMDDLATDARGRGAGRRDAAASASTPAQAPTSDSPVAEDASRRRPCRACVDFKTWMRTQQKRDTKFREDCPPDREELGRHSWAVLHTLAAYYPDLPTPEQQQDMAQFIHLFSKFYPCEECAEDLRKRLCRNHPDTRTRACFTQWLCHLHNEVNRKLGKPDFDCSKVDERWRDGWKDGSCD
# MLL AF4-AF9 inh = blocks AF4 peptide binding to human AF9; 0.47% of 350,000 active; AID 651704; AlphaScreen, biotin-AF4 peptide binding to FLAG-AF9; inhibition, % at 10 µM;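 active means every replicate reaching a set inhibition limit, whatever the replicate mean, cut at about 25% in these data; inconclusive means mean inhibition reaches that limit but some replicates miss it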;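 further: 0% = plate neutral control median and 100% = total signal loss; the record names both 10 and 1 µM as test concentration; the first replicate is given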
# Target sequence (P42568 whole entry, looked up): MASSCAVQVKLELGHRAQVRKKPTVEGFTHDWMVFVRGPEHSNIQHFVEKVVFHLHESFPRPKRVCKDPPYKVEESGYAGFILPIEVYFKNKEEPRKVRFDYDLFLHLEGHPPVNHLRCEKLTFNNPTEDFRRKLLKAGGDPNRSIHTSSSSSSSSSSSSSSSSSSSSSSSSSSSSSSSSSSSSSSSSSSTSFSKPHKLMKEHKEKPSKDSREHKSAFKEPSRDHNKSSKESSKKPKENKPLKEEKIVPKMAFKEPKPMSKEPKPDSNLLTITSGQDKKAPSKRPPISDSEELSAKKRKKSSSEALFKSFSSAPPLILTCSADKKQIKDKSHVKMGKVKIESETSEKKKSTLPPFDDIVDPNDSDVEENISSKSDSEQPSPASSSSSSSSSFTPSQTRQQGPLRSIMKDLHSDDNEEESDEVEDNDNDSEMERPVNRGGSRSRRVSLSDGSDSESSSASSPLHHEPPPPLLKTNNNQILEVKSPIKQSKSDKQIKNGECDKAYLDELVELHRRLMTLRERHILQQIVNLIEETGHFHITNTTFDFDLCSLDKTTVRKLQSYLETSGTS
# T cruzi inh = T. cruzi replication inhibition | T. cruzi beta-gal in NIH3T3, luminescence, 90 h | inhibition, % (no concentration beside the values) | 1.4% of 300,000 active | AID 1885;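 active means mean inhibition across valid replicates above about 55%, limit read from the data; inconclusive means mean below that limit but half or more replicates reach it; inactive means mean below it, under half of replicates reach it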;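 further: signal also drops with host cell toxicity which is not excluded here; 0% = plate median of DMSO wells and 100% = zero luminescence signal; higher percent means less beta-gal luminescence so fewer parasites; stock transfer was 50 nL into about 50 µL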
# Beta cell apopt = blocks beta cell apoptosis | INS-1E cytokine-induced death, ATP luminescence, 48 h; percent of positive-control rescue, neutral wells zero | protection from apoptosis, % (concentration not given with the values) | 0.8% of 300,000 active;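 active means all replicates at 75% or more, or half of them and the mean; inconclusive means half reach 75% but not the mean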;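 further: 0% = cytokine-treated negative control wells and 100% = positive control rescue; higher means more ATP so stronger rescue from cytokine killing; wells of about 40 µL received 100 nL stock; the first replicate is given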
# Calb FLC = C. albicans growth modulation with fluconazole. 0.57% of 300,000 active. AID 1979. C. albicans CaCi-2 (fluconazole-resistant clinical isolate) + fluconazole, Alamar Blue growth, 48 h. growth inhibition, % (no concentration beside the values);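 active means most replicates above 75%; inconclusive means exactly half above 75%; inactive means most below 75%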;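 further: all wells also contain fluconazole at 8 µg/ml as a sub-toxic cotreatment; 0% = median of DMSO wells and 100% = median of geldanamycin control wells; wells of about 8 µL received 7.5 nL stock; the first replicate is given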
# Ecoli rRNA inh OD600 = recorded beside Ecoli rRNA inh, whose call it bears; OD600 change, %; measured here: OD600 growth;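 optical density of the mix in the first replicate; 0 = DMSO median and -100 = no signal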
# Ecoli rRNA inh RFP = second read-out of Ecoli rRNA inh, no call of its own (marks repeat the call); RFP signal change, %; measured here: RFP humanized mutant strains;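 first replicate; 0 = DMSO median and -100 = no signal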
# An asterisk follows results filed as active; i = inactive; u = inconclusive; x = not tested or not shown.
SMILES,Ecoli rRNA inh,Ecoli rRNA inh OD600,Ecoli rRNA inh RFP,FGF22 binding,RanGTP-Impb inh,ALR H2O2 inh,MLL AF4-AF9 inh,T cruzi inh,Beta cell apopt,Calb FLC
CCOc1ccccc1N(CC(=O)NC1CCCCC1)C(=O)CCC(=O)Nc1nccs1,7,11,-2.1,i,0.7,-8,1.9,10,0,19
Cc1cc(C)n(C(=O)CCCC(=O)n2nc(C)cc2C)n1,x,x,x,x,-1.0,-2,x,-16,-6,1
O=S(=O)(c1ccc(Cl)cc1)N1CCN(c2ncccn2)CC1,16,6,-5.6,i,4.8,10,-5.7,0,-3,-2
Cc1ccc(S(=O)(=O)N2CC(C)N(C(=O)N3CCOCC3)C2)cc1 (stereo not drawn),3,5,-0.8,x,u,-7,-1.3,-7,x,-5
NC(=O)c1nc[nH]c1C(=O)Nc1cccc(NC(=O)c2cccc(C(F)(F)F)c2)c1,10,6,-0.1,i,x,-2,6.2,x,3,x
O=C(COc1coc(CN2CCc3ccccc32)cc1=O)NCCc1ccccc1,-2,-2,-0.4,i,-0.7,32,12,6,-4,6
O=C(NC1CCCCC1)C12CC3CC(CC(Cl)(C3)C1)C2,x,x,x,x,-6.8,x,x,17,1,-23
O=C(OCC(=O)N1CCC(Cc2ccccc2)CC1)c1ccccc1,0,3,-5.5,i,3.1,x,-0.8,-8,-4,3
CCc1ccc2c(c1)cc(CN(C(=S)Nc1ccccc1)C1CC1)c1nnnn12,x,x,x,x,7.4,-15,x,1,-12,20
O=C(NC(=S)Nc1ccc(Br)cn1)c1cccs1,9,18,-1.3,i,5.4,-12,-6.2,3,-5,10
Cc1ccc(S(=O)(=O)CC2CSc3nc(N)cc(=O)n32)cc1 (stereo not drawn),-1,0,-0.6,x,1.4,-12,x,-7,-7,3
Cc1noc(C)c1C(=O)NCCc1ccccc1,x,x,x,x,-3.1,-2,x,-23,0,-8
Clc1cccc(/C=N/N2CCN(Cc3ccccc3)CC2)c1,-31,-28,0.6,i,-0.5,1,15,21,-5,16
COC(=O)Cc1ccc(NC(=S)NNC(=O)c2ccccc2Br)cc1,-10,-5,0.5,i,-2.6,70,1.5,-5,0,50
Cc1cc(NC(=O)CSc2nc3c(cnn3-c3cccc(Cl)c3)c(=O)[nH]2)no1,x,x,x,i,x,2,-6.6,x,-2,x
CC(=O)c1cccc(OCc2cc(C(=O)N3C[C@@H](C)O[C@@H](C)C3)no2)c1,15,6,-0.4,i,1.8,-11,4.7,-8,0,-5
COc1ccc(-c2oc3ncnc(NCCN4CCOCC4)c3c2-c2ccc(OC)cc2)cc1,x,x,x,x,u,-8,x,u,41,25
O=C(CCc1ccccc1)Nc1nnc(-c2ccc3c(c2)OCCO3)o1,5,4,1.6,i,-0.5,-16,0.4,-3,1,-14
COc1cccc(CC(NC(C)=O)C(=O)NC2CCN(C(=O)Nc3ccc(C)cc3)CC2)c1 (stereo not drawn),6,8,-3.6,i,2.5,x,1.7,8,x,-3
CCCCCC(=O)N1CCCC1,1,-3,-1.7,i,8.0,-2,-1.5,-17,-1,-1
O=C(Nc1ccc(F)cc1)C1=CC(=O)N2CCN=C2S1,x,x,x,x,-4.2,30,x,-4,-8,38
CCN(c1ccccc1)S(=O)(=O)c1ccc(C(=O)NCC(c2cccs2)N(C)C)cc1 (stereo not drawn),-16,-5,0.7,i,0.4,0,5.4,7,5,14
O=C(COC(=O)Cc1ccccc1F)Nc1ccccc1[N+](=O)[O-],-8,1,-1.9,i,x,x,3.7,x,-5,x
CN1CCN(c2ccc(S(=O)(=O)N3CCCCC3)cc2NC(=O)c2cccc([N+](=O)[O-])c2)CC1,-5,0,-0.3,i,u,-11,13,46,5,-3
COc1ccccc1N1CCN(S(=O)(=O)CCNC(=O)c2cc(OC)c(OC)c(OC)c2)CC1,0,3,1.7,i,1.2,24,-7.2,26,5,1
O=C(C[C@H]1C(=O)N(c2ccc(F)c(F)c2)C[C@@H]1Cc1ccccc1)Nc1ccccc1,-15,-32,-2.0,i,-5.1,-1,-5.3,28,36,13
CC(=O)Nc1ccc2nc(NC(=O)c3ccc([N+](=O)[O-])o3)sc2c1,13,15,1.6,i,u,-10,0.5,30,x,3
CC(C)(C)C(=O)Nc1ccnn1C1CCN(C(=O)c2cccc(Cl)c2)CC1,-3,-1,0.5,i,2.1,-11,1.6,-12,-7,10
COc1cccc(OC)c1NC(=O)C1CCCN1C(=O)NCc1ccccc1 (stereo not drawn),x,x,x,x,-5.2,x,x,-3,2,u
O=C(/C=C/c1ccc(F)cc1)N1CCCc2ccccc21,-54,-78,-20,i,1.7,-2,2.8,3,-3,0
Cc1ccc(S(=O)(=O)N2CCOCC2)cc1NC(=O)CSc1ccc(Cl)cc1,-9,-4,4.1,i,2.0,-3,-0.5,1,x,8
Nn1c(SCC(=O)Nc2ccc3c(c2)OCO3)nncc1=O,19,18,2.2,i,-3.2,98*,-1.0,-14,-3,3
CCCCn1c(N)c(N(CC(C)C)C(=O)COC(=O)Cc2cccc(OC)c2)c(=O)[nH]c1=O,1,10,-4.4,i,4.5,-1,-7.5,-8,-2,-7
CCN1CCN(C(=O)CN(c2ccc(F)c(Cl)c2)S(C)(=O)=O)CC1,11,14,-0.4,i,-1.7,-5,-2.5,-9,-1,-2
O=C(Nc1c[nH]c(=O)[nH]c1=O)c1ccccc1Br,4,8,-1.3,i,4.0,-4,-0.3,-8,-3,30
CCOC(=O)Cn1cnc2c(cnn2-c2ccc(OC)cc2)c1=O,6,11,2.1,i,-6.0,-16,-1.6,-7,-1,-4
COc1nccnc1NS(=O)(=O)c1ccc(NC(=S)NC(=O)c2ccc(F)cc2)cc1,x,x,x,x,1.8,63,x,-4,-6,-3
CNC1=CC(=O)CC(c2ccccc2)C1 (stereo not drawn),25,24,3.1,i,0.5,22,-2.4,-4,1,-7
CC1CCC(=C(C#N)C(=O)Nc2cccc(Cl)c2)CC1 (stereo not drawn),x,x,x,x,1.1,2,x,10,-1,21
Cc1ccc(-c2nc(NC(=O)c3ccc(S(=O)(=O)N(CCC#N)CCC#N)cc3)sc2-c2ccccc2)cc1,18,20,5.8,i,2.5,x,1.0,56*,1,1
C=CCNS(=O)(=O)CC12CCC(CC1=O)C2(C)C (stereo not drawn),x,x,x,x,6.2,7,x,3,6,5
Cc1ccc(-c2nnn(CC(=O)N(c3cccc(F)c3)C(C(=O)NC(C)(C)C)c3ccco3)n2)o1 (stereo not drawn),17,16,-0.2,i,0.8,-4,0.7,-4,0,10
Cc1cccc(NC(=O)CSCC(=O)Nc2cc(S(=O)(=O)N3CCOCC3)ccc2OC(C)C)c1,3,-1,0.3,i,-3.5,-11,1.3,24,-2,-4
CN1CCN(c2ccc(Cl)cc2NC(=O)C2COc3ccccc3O2)CC1 (stereo not drawn),x,x,x,x,-1.3,-8,x,7,8,-18
Cc1ccccc1C(=O)Nc1ccccn1,x,x,x,x,-0.9,-5,x,1,-7,17
CNC(=O)c1ccc(Nc2nnc(C)c3ccccc23)cc1,0,1,1.6,x,5.6,-8,x,-8,0,-2
Cc1nn(-c2ccccn2)c2nc(-c3cccs3)cc(C(=O)N3CCOCC3)c12,x,x,x,x,u,-7,x,18,2,-6
Cc1c(C)n2c(SCC(=O)Nc3cccc4ccccc34)nnc2[nH]c1=O,10,5,-2.9,i,0.6,x,-8.1,-6,0,3
O=C(Nc1ccccc1-c1ccccc1)c1cc(C(F)(F)F)cc(C(F)(F)F)c1,x,x,x,x,-1.0,x,x,-7,-13,-10
Cc1cc2[nH]c(=O)c(=O)[nH]c2cc1S(=O)(=O)NCc1ccccc1,1,4,-2.8,i,0.8,4,-1.2,-34,7,20

# New compounds follow:
SMILES,Ecoli rRNA inh,Ecoli rRNA inh OD600,Ecoli rRNA inh RFP,FGF22 binding,RanGTP-Impb inh,ALR H2O2 inh,MLL AF4-AF9 inh,T cruzi inh,Beta cell apopt,Calb FLC
CN(C)CCN(C(=O)c1ccc2c(c1)OCCO2)c1nc2cc3c(cc2s1)OCO3,-2,-5,7.5,i,-2.7,24,10,32,-8,3
COc1ccc(OCCC(=O)c2ccc(OC)cc2)cc1,3,-7,2.9,i,0.6,-5,2.1,3,-1,-15
CCn1c(SCC(=O)N2CCOCC2)nc2sc3c(c2c1=O)CCCC3,x,x,x,x,11,-2,x,x,4,16
COc1ccc(C(NC(=O)c2cc(OC)ccc2OC)c2ccccc2)cc1 (stereo not drawn),-10,-28,5.2,i,3.6,-1,2.1,5,4,5
Cc1ccc(N2CCN(CC3CC=CCC3)CC2)cc1 (stereo not drawn),x,x,x,x,4.8,37,x,-10,4,-23
CSc1cccc(NC(=O)Nc2nc3c(C)cccc3s2)c1,-10,2,-0.3,i,4.7,5,-0.8,25,9,-3
COc1ccc(NC(=O)c2cc(-c3ccco3)nc3ccccc23)cc1,-4,6,1.2,i,6.1,0,-2.0,-8,x,0
O=C(NCCc1ccccn1)c1c(-c2ccccc2)sc2ccccc12,-19,-16,-22,i,x,8,-0.4,x,-3,x
COc1ccc(NC(=S)NCc2ccc(S(N)(=O)=O)cc2)c(OC)c1,1,-2,-4.9,i,-0.8,-1,3.3,-4,-2,-6
COc1ccc(CNc2cc(NCCCO)c([N+](=O)[O-])c3nonc23)cc1,1,-10,1.8,i,5.8,-42,-6.1,-12,4,-41
COc1cc(/C=C2/C(=O)NN(c3ccc(Cl)cc3)C2=O)cc(Br)c1O,-25,-20,6.8,i,-2.6,98*,1.4,4,-10,0
S=C(Nc1ccccc1)Nc1nc2ccccc2n1CCOc1ccccc1,x,x,x,x,1.3,-8,x,5,20,94*
CC1Sc2ccc(C(=O)NCc3ccccc3Cl)cc2NC1=O (stereo not drawn),x,x,x,i,x,-5,-0.6,x,-3,x
O=C(CCCN1C(=O)c2ccccc2C1=O)Nc1ccc(S(=O)(=O)N2CCCCC2)cc1,x,x,x,x,5.6,-2,x,4,3,3
COc1ccc(NC(=O)c2ccco2)cn1,6,2,0.3,i,-1.3,x,1.3,-14,2,-28
Cc1nc(-c2cc(C#N)c(=O)[nH]c2C)cs1,x,x,x,i,4.4,-88,-3.8,5,4,-3
c1ccc(CCSc2nccn2-c2ccccc2)cc1,x,x,x,x,2.3,12,x,-23,-1,13
COc1ccc(NS(=O)(=O)c2cc(NC(=O)c3cnccn3)ccc2N2CCCC2)cc1,1,-11,0.9,i,-2.2,x,1.6,45,-12,36
CCn1cnc2cc(NCc3cccs3)ccc21,4,2,1.4,i,0.7,u,-9.5,-17,-2,-1
CCOC(=O)N1CCN(C(=O)CSCc2ccccc2Cl)CC1,-7,-11,1.0,i,1.7,99*,1.0,8,-10,-5

# Source: PubChem BioAssay

# An excerpt. The share of hits here may be higher or lower than overall.
